Rce1 inhib – yeast Rce1p protease inhibitors, primary screen, biochemical, fluorescence, cell-free homogeneous | CAAX prenyl protease 2 (Saccharomyces cerevisiae (strain ATCC 204508 / S288c)), Q03530 | calls only | yeast membranes, quenched prenylated peptide cleavage fluorescence | 0.27% of 290,000 active | AID 2563, 2010;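 active = fall in fluorescence gain of 50% or more versus controls, with final raw signal at or below 3038400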;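 also: plate controls were neutral control wells for no effect and wells lacking membranes for full effect; tested at 10 µM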
Target sequence (Q03530 whole entry, looked up): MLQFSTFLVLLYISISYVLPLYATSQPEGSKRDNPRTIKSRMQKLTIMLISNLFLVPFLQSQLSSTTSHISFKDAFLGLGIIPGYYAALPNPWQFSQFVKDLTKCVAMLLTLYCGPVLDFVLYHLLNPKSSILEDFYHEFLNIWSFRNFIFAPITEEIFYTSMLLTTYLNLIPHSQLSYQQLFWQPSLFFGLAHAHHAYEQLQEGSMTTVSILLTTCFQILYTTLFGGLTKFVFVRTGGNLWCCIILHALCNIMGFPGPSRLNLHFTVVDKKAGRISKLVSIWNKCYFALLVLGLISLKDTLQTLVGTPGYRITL
UUG fidelity – modulators of yeast start codon fidelity, primary screen, whole organism, S. cerevisiae, single point, plate reader; AID 602363, 2012; S. cerevisiae UUG-firefly luciferase reporter, luminescence/redox ratio; activity score, % at 18.7 µM; 0.13% of 350,000 active;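 active = replicate mean at a twofold rise or more, about +100% in these data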;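 also: firefly luciferase made from a UUG start codon reports start codon fidelity; reporter light over untreated wells divided by growth signal over untreated wells; some hits fall short of that in this replicate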
PABP polyA inh – PABP poly(A) RNA binding inhibitors, primary screen, biochemical, fluorescence polarization, uHTS. 1% of 290,000 active. inhibition, % at 35 µM;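 active = 50% or more with normal probe brightness, or confirmed in later tests; about a fifth of its hits are not listed in these tables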;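 also: calls also rest on retests at 20 µM and on dose response follow-up; controls were probe without protein and protein plus probe with vehicle; some compounds called inactive have numbers as strong as hits; many hits fall short of the cut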
CSC inhib – cancer stem cell viability inhibitors, primary screen, luminescence. cancer stem cell-like cells viability. 1.1% of 300,000 active. inhibition, % at 7.5 µM;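 active = mean at 75% or more and at least half the replicates too; tested in HMLE shEcad cells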;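 also: 0% = median of negative and 100% = median of positive control wells; the first replicate is given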
HIV Env fusion – inhibitors of HIV-1 Env-driven cell-cell fusion, primary screen, HeLa-JRFL effector, CEM21 target cells, luciferase | inhibition, % at 12.3 µM | 1.1% of 360,000 active;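 active = mean replicate inhibition score of at least 50 and every replicate individually at or above 50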;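 also: 0% = plate neutral controls and 100% = maraviroc near 300 nM; one replicate is shown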
eIF4H inh – human eIF4H binding inhibitors, primary screen, translation initiation inhibitor project, biochemical, uHTS, fluorescence polarization; Eukaryotic translation initiation factor 4H (Homo sapiens), Q15056; eIF4H fluorescence polarization binding assay; inhibition, % at 35 µM; 0.94% of 290,000 active; AID 2012, 2009;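 active = 50% or more with normal probe brightness, or confirmed in later tests; about a fifth of its hits are not listed in these tables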;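 also: calls also rest on retests at 20 µM and on dose response follow-up; 0% = protein and probe with vehicle and 100% = probe without protein; strong numbers were not always called active; many hits fall short of the cut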
MT1-MMP act inh – blockers of MT1-MMP proenzyme processing, primary screen, HT1080 RFP-PRO-GFP cells, GFP/RFP fluorescence. Matrix metalloproteinase-14 (Homo sapiens), P50281. GFP/RFP ratio fluorescence, overnight; percent of plate control window, DMSO zero. GFP/RFP ratio change, % at 20 µM. 0.061% of 360,000 active. AID 651647, 2012;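 active = GFP/RFP ratio change of at least 30% with cell ATP level not reduced by more than half and red fluorescence within 50% of control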; also: strong numbers were not always called active
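system = RFP-PRO-GFP reporter HT1080 cells | dosing = 20 µM single dose, 1% DMSO | timing = overnight cell settling, then overnight compound exposure, 37 °C, 5% CO2 | read-out basis = GFP/RFP fluorescence ratio | controls = DMSO and RFP-L50D-GFP cell wells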
eIF4H inh retest – further read-out of eIF4H inh, marked with its call; inhibition, %; compound at 20 µM; confirmation average;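 mean of two retest wells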
PABP polyA inh retest – further read-out of PABP polyA inh, marked with its call; inhibition, %; compound at 20 µM; confirmation repeats;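 mean of two retest wells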
MT1-MMP act inh RFP – second read-out of MT1-MMP act inh, no call of its own (marks repeat the call); RFP signal change, %; measured here: RFP expression control read;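 0 = vehicle wells; hits needed this value within 50% of zero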
Starred values were filed as active, the others as inactive; i = inactive; · = not tested or not shown; & = joins results of further samples; [ ] = remark or other dose.

SMILES | Rce1 inhib | UUG fidelity | PABP polyA inh | CSC inhib | HIV Env fusion | eIF4H inh | MT1-MMP act inh | MT1-MMP act inh RFP | others
Cc1ccc2nc(-c3ccc(SCC(=O)N4CCc5ccccc54)nc3)[nH]c2c1 | i | · | -5 | -7 | · | -6 | 1 | -3
COc1ccccc1/C=N/NC(=O)c1ccc(CN2C(=O)c3cccc4cccc2c34)cc1 | i | -6 | 8 | 13 | 1 | -5 | -12 | -2
COc1ccc(/C=C(\NC(=O)c2cccs2)C(=O)NCc2ccco2)cc1OC | i | -9 | 5 | -5 | -4 | -8 | -1 | -4
Cc1ccc(S(=O)(=O)NCC(=O)OCN2C(=O)c3ccccc3C2=O)cc1 | i | · | -3 | -6 | · | -2 | · | ·
C=CCNC(=O)c1ccc(-c2nc(-c3ccc(Cl)cc3Cl)cs2)cc1 | i | -6 | 15 | 5 | -10 | 8 | 2 | -7
NS(=O)(=O)c1ccc(CCNCc2ccccc2OCc2ccc(Cl)cc2)cc1 | i | 10 | -14 | 9 | 43 | -2 | 7 | -12
CCCS(=O)(=O)c1nc(S(=O)(=O)c2ccc(C)cc2)c(N2CCN(C)CC2)s1 | i | -26 | 2 | -4 | 6 | -11 | 10 | 34
N#C/C(=C(/O)CSc1ncn[nH]1)c1nc2ccccc2[nH]1 | i | · | 43* | 6 | -9 | 64 | -10 | 9 | eIF4H inh retest=-10;PABP polyA inh retest=95*
CCOc1cc2[nH]c(=O)n(Cc3ccc(C(=O)NCCOC)cc3)c(=O)c2cc1OCC | i | -31 | -7 | · | -8 | -2 | 1 | 0
COC(=O)c1cc(C(=O)NCCCN2CCOCC2)cc([N+](=O)[O-])c1 | i | · | 4 | 6 | -8 | -2 | 3 | 5
O=C1N[C@@H](Cc2cn(S(=O)(=O)c3ccc([N+](=O)[O-])cc3)c3ccccc23)C(=O)N[C@H]1Cc1ccccc1 | i | -19 | · | -23 | 18 | · | 0 | -3
CCO[C@H]1OC(C(=O)N2CCN(Cc3ccc4c(c3)OCO4)CC2)=C[C@@H](C2CCCCC2)[C@@H]1CCCO | i | 0&-7 | -1 | 60 | 5[16.7 µM] | -1 | -4 | -9
Cc1cc(C)n2nc(SCC(=O)Nc3ccc(S(=O)(=O)N(C)C)cc3)nc2n1 | · | -7 | · | -8 | -4 | · | 5 | -3
COc1cc(OC)cc(-c2nc(-c3cc4cc(C)ccc4nc3OC)no2)c1 | i | 3 | -5 | · | · | -11 | -11 | -4
Cc1cc(C)c2c(N=NN(C)C)[nH]nc2n1 | i | -23 | -5 | 1 | · | 11 | 2 | 0
COc1ccc(SCc2noc(C(=O)NC(C)C)c2C(=O)O)cc1 | i | 1 | 4 | 1 | 15 | 14 | 2 | 3
CC(=O)Oc1ccc(C(C)=O)c2c1OCCO2 | i | -8 | 7 | -8 | · | 6 | 1 | 3
Cc1ccc(C)c(NC(=O)CSc2cccc3cccnc23)c1 | i | -14 | 10 | 59 | 18 | 0 | 0 | -3
CSc1nc2sccc2c(=O)[nH]1 | i | · | 60 | 1 | 16 | 7 | -5 | 4 | eIF4H inh retest=3;PABP polyA inh retest=-6
COc1ccc(NC(=O)CC23CC4CC(CC(C4)C2)C3)cn1 | i | -5 | 1 | -6 | 16 | 2 | -3 | 0
COc1cc(NC(=O)COC(=O)CCc2cc(OC)c(OC)c(OC)c2)cc(OC)c1 | i | · | 8 | -13 | 6 | -7 | 1 | 0
COc1c(C)cc(C(=O)C2CCCN(C(=O)c3ccoc3)C2)cc1C (stereo unspecified) | i | -9 | -16 | -14 | 6 | 4 | 0 | 0
O=C(OCN1C(=O)C(=O)c2ccccc21)c1ccc(Cl)cc1 | i | -2 | -6 | -4 | 2 | 8 | 0 | 3
CC(=O)c1c(C)[nH]c(C(=O)CSc2nc3ccccc3c(=O)n2CCCN2CCOCC2)c1C | · | 5 | -6 | -2 | -155 | 3 | -2 | 0
CSc1nc(C)cc(Oc2ccc(OCC(N)=O)nn2)n1 | i | -3 | 2 | -12 | 8 | -2 | 1 | 3
O=C(Nc1nc2ccc([N+](=O)[O-])cc2s1)c1c(F)cccc1F | i | -3 | -4 | 11 | -17 | -5 | 3 | -5

An excerpt from above in order of formula weight, highest first:
SMILES | Rce1 inhib | UUG fidelity | PABP polyA inh | CSC inhib | HIV Env fusion | eIF4H inh | MT1-MMP act inh | MT1-MMP act inh RFP | others
CCO[C@H]1OC(C(=O)N2CCN(Cc3ccc4c(c3)OCO4)CC2)=C[C@@H](C2CCCCC2)[C@@H]1CCCO | i | 0&-7 | -1 | 60 | 5[16.7 µM] | -1 | -4 | -9
CCCS(=O)(=O)c1nc(S(=O)(=O)c2ccc(C)cc2)c(N2CCN(C)CC2)s1 | i | -26 | 2 | -4 | 6 | -11 | 10 | 34
CCOc1cc2[nH]c(=O)n(Cc3ccc(C(=O)NCCOC)cc3)c(=O)c2cc1OCC | i | -31 | -7 | · | -8 | -2 | 1 | 0
COc1ccccc1/C=N/NC(=O)c1ccc(CN2C(=O)c3cccc4cccc2c34)cc1 | i | -6 | 8 | 13 | 1 | -5 | -12 | -2
COc1ccc(/C=C(\NC(=O)c2cccs2)C(=O)NCc2ccco2)cc1OC | i | -9 | 5 | -5 | -4 | -8 | -1 | -4
C=CCNC(=O)c1ccc(-c2nc(-c3ccc(Cl)cc3Cl)cs2)cc1 | i | -6 | 15 | 5 | -10 | 8 | 2 | -7
COc1cc(OC)cc(-c2nc(-c3cc4cc(C)ccc4nc3OC)no2)c1 | i | 3 | -5 | · | · | -11 | -11 | -4
COc1c(C)cc(C(=O)C2CCCN(C(=O)c3ccoc3)C2)cc1C (stereo unspecified) | i | -9 | -16 | -14 | 6 | 4 | 0 | 0
O=C(OCN1C(=O)C(=O)c2ccccc21)c1ccc(Cl)cc1 | i | -2 | -6 | -4 | 2 | 8 | 0 | 3
COc1ccc(NC(=O)CC23CC4CC(CC(C4)C2)C3)cn1 | i | -5 | 1 | -6 | 16 | 2 | -3 | 0
CC(=O)Oc1ccc(C(C)=O)c2c1OCCO2 | i | -8 | 7 | -8 | · | 6 | 1 | 3
Cc1cc(C)c2c(N=NN(C)C)[nH]nc2n1 | i | -23 | -5 | 1 | · | 11 | 2 | 0
CSc1nc2sccc2c(=O)[nH]1 | i | · | 60 | 1 | 16 | 7 | -5 | 4 | eIF4H inh retest=3;PABP polyA inh retest=-6

Ordered by formula weight (low to high): part of the list above.
SMILES | Rce1 inhib | UUG fidelity | PABP polyA inh | CSC inhib | HIV Env fusion | eIF4H inh | MT1-MMP act inh | MT1-MMP act inh RFP | others
CSc1nc(C)cc(Oc2ccc(OCC(N)=O)nn2)n1 | i | -3 | 2 | -12 | 8 | -2 | 1 | 3
COc1ccc(SCc2noc(C(=O)NC(C)C)c2C(=O)O)cc1 | i | 1 | 4 | 1 | 15 | 14 | 2 | 3
CC(=O)c1c(C)[nH]c(C(=O)CSc2nc3ccccc3c(=O)n2CCCN2CCOCC2)c1C | · | 5 | -6 | -2 | -155 | 3 | -2 | 0

Screening data as filed in PubChem.

An unsorted share of the library (roughly 2.9% active in at least one column).
